GALR2 ag: GALR2 (human) receptor agonism. activation, %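 (tested at 5 µM)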. O43603. 0.48% of 140,000 active. GALR2-expressing cells, agonist activation read-out;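 active = above mean plus 3 SD of all compounds, about 5% in these data, not always enough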;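 note: 0% = vehicle buffer wells and 100% = reference agonist at full effect; tested in CHO reporter cells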
Target sequence (O43603 whole entry, looked up): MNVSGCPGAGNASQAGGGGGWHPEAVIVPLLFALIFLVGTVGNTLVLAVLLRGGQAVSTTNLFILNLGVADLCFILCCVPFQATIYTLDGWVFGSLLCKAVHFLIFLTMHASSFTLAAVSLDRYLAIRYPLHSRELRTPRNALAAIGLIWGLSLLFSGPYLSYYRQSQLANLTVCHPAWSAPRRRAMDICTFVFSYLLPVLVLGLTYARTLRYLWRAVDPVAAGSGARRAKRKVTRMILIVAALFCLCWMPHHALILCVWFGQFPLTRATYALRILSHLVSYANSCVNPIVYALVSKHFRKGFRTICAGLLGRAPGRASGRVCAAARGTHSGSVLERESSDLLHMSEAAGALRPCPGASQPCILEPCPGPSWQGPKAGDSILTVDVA
PKD1 inh: PKD1 (human) kinase inhibition | 0.056% of 200,000 active | PKD1 kinase fluorescence polarization assay | AID 797 | inhibition, %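 (about 10 µM by stock and volumes)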 | Q15139;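 active = inhibition of 50% or more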;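 note: controls were vehicle for no effect and a reference inhibitor for full effect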
RGS16-Gao: regulators of human RGS16-Galphao interaction | bead-based flow cytometry RGS16-Galphao binding, fluorescence; actives lie on both sides | O15492+P09471 | 0.38% of 220,000 active | binding response (% of control), % at 10 µM;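 active = below 25% or above 175%, edge rows of some plates excepted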;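 note: Galphao activated by GDP with aluminum fluoride before binding; 100% = wells without compound and 0% = beads without RGS; some results beyond the cut were filed as inactive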
Target sequence (O15492 whole entry, looked up): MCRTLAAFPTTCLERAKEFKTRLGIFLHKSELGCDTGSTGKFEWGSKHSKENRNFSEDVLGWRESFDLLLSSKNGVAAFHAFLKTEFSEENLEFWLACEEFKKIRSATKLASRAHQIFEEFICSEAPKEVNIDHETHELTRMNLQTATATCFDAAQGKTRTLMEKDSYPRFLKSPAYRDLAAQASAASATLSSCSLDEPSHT
Target sequence (P09471 whole entry, looked up): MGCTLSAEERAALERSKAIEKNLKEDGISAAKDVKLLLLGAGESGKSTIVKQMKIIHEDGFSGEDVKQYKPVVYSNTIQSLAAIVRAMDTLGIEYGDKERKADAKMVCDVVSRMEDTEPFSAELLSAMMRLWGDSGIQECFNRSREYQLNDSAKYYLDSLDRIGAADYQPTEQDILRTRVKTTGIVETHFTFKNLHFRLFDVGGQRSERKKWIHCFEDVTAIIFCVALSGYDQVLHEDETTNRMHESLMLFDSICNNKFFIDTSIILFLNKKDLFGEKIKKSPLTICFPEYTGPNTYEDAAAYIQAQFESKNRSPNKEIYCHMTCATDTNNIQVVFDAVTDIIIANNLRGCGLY
Insulin prom inh: TRM-6 insulin promoter activity inhibition | inhibition, % at 2 µM | 0.9% of 130,000 active | TRM-6 cells (human fetal islet line), insulin promoter-eGFP reporter, imaging; reporter expression induced with tamoxifen;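 active = inhibition above the mean plus 3 SD, with well images judged a real hit on visual review, cut at about 60% in these data, passing the limit was not always enough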
HSV augment: HSV replication enhancement | HSV replication augmentation in cells, fold increase | maximum fold increase | 0.005% of 220,000 active;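 active = peak rise of 1.5-fold or more in the series; tested in PC3 cells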;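 note: first round at 10 µM; read as green reporter fluorescence; hits show the peak of a series up to 25 µM; 1 = signal of infected wells without compound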
Insulin prom inh cell count: recorded beside Insulin prom inh, whose call it bears; normalized cell count, %; measured here: cell count, toxicity; reference of the scale not given here;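 cells exposed to compound for 48 h; stained nuclei by imaging scaled within each plate; lower means fewer cells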
HSV augment primary fold: recorded beside HSV augment, whose call it bears; fold increase; compound at 10 µM; measured here: primary screen fold increase 10 uM; tested in PC3 cells;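 GFP signal in the first replicate; 1 = infected wells without compound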
The depositor's hits bear a star. The order is random (roughly 1.3% active in at least one column).

How did O=C(NCC(c1cccs1)N1CCOCC1)c1ccco1 (stereo not given) do in these assays?
GALR2 ag: -2.5; PKD1 inh: 0.3; RGS16-Gao: 70.4; Insulin prom inh: 34.9; HSV augment: inactive; Insulin prom inh cell count: 121.6; HSV augment primary fold: 0.96

How did Cc1cccc(N(Cc2nnc3n2CCCCC3)C(=O)Nc2ccccc2)c1 do in these assays?
GALR2 ag: -1.0; PKD1 inh: -10.8; RGS16-Gao: 101.8; Insulin prom inh: 45.5; HSV augment: inactive; Insulin prom inh cell count: 128.4; HSV augment primary fold: 0.64

How did COc1ccc(NC(=O)Nc2ccncc2)c(OC)c1 do in these assays?
PKD1 inh: 0.7; RGS16-Gao: 97.1; Insulin prom inh: -16.7; HSV augment: inactive; Insulin prom inh cell count: 123.5; HSV augment primary fold: 0.92

What do the screens show for `O=C(C1CCC1)N1CCN(c2ccnc3cc(Cl)ccc23)CC1`?
RGS16-Gao: 98.8; HSV augment: inactive; HSV augment primary fold: 0.96

Results for O=C(COC(=O)C1CC1)Nc1ccc(OC(F)F)cc1 ?
GALR2 ag: -1.4; PKD1 inh: -1.9; RGS16-Gao: 61.1; HSV augment: inactive; HSV augment primary fold: 0.94

Results for O=C(Cn1nnc2ccccc2c1=O)NC1CCCc2ccccc21 (stereo not given) ?
GALR2 ag: -2.8; PKD1 inh: -4.4; RGS16-Gao: 93.0; Insulin prom inh: -16.7; HSV augment: inactive; Insulin prom inh cell count: 120.6; HSV augment primary fold: 0.87

Results for C=CCN(c1ccccc1)S(=O)(=O)c1cccc(C(=O)O)c1 ?
GALR2 ag: 0.7; PKD1 inh: -0.8; RGS16-Gao: 101.8; Insulin prom inh: -10.3; HSV augment: inactive; Insulin prom inh cell count: 96.0; HSV augment primary fold: 0.943

What do the screens show for `CN(c1ccc(C(=O)NCc2ccncc2)cc1)S(C)(=O)=O`?
GALR2 ag: -0.6; PKD1 inh: 1.6; RGS16-Gao: 121.8; Insulin prom inh: -45.5; HSV augment: inactive; Insulin prom inh cell count: 46.4; HSV augment primary fold: 0.96

How did Cn1cccc1C(=O)NS(=O)(=O)c1ccccc1Cl do in these assays?
GALR2 ag: -0.7; PKD1 inh: -12.6; RGS16-Gao: 100.8; Insulin prom inh: 61.5; HSV augment: inactive; Insulin prom inh cell count: 124.5; HSV augment primary fold: 1.28

Results for COC(=O)[C@@]1(Cc2ccc(OC)cc2)[C@H]2c3cc(C(=O)N(C)C)n(Cc4ccc(OC(F)(F)F)cc4)c3C[C@H]2CN1C(=O)c1ccccc1 ?
GALR2 ag: 0.3; PKD1 inh: -4.2; RGS16-Gao: 103.6; Insulin prom inh: 30.0; HSV augment: inactive; Insulin prom inh cell count: 125.0; HSV augment primary fold: 0.9

Results for Oc1ccc(-c2nc3ncccn3c2Nc2ccc3c(c2)OCCO3)cc1 ?
GALR2 ag: -1.3; PKD1 inh: 0.5; RGS16-Gao: 103.9; Insulin prom inh: -41.4; HSV augment: inactive; Insulin prom inh cell count: 204.0; HSV augment primary fold: 0.88

Results for O=C(CNc1ccc(F)cc1)N/N=C1\CCc2ccccc21 ?
PKD1 inh: -2.1; RGS16-Gao: 103.1; HSV augment: inactive; HSV augment primary fold: 1.05

Results for COCC(C)n1c(C)cc(C(=O)CSc2nnc(Nc3ccccc3F)s2)c1C (stereo not given) ?
GALR2 ag: -1.1; PKD1 inh: -3.6; RGS16-Gao: 90.3; Insulin prom inh: -5.7; HSV augment: inactive; Insulin prom inh cell count: 181.3; HSV augment primary fold: 0.897

What do the screens show for `Nc1nnc(SCC(=O)c2cccc([N+](=O)[O-])c2)s1`?
PKD1 inh: -0.2; RGS16-Gao: 81.5; Insulin prom inh: -33.3; HSV augment: inactive; Insulin prom inh cell count: 86.6; HSV augment primary fold: 0.97

How did CC(=O)c1c(C(C)=O)c(C)n(-c2ccc3ncccc3c2)c1C do in these assays?
PKD1 inh: -2.9; RGS16-Gao: 95.9; HSV augment: inactive; HSV augment primary fold: 0.98

Results for CC(C)(C)C(=O)/C(=C\c1ccc([N+](=O)[O-])cc1)n1cncn1 ?
GALR2 ag: 1.4; PKD1 inh: 2.5; RGS16-Gao: 103.6; Insulin prom inh: -87.5; HSV augment: inactive; Insulin prom inh cell count: 11.1; HSV augment primary fold: 0.793

Results for Cc1[nH][nH]c(=O)c1C=NCc1cccnc1 ?
PKD1 inh: -0.2; RGS16-Gao: 104.7; HSV augment: inactive; HSV augment primary fold: 1.03

How did COC(=O)c1ccccc1NC(=O)NC1CCN(Cc2ccccc2)CC1 do in these assays?
GALR2 ag: -1.8; PKD1 inh: 3.2; RGS16-Gao: 94.3; Insulin prom inh: 23.3; HSV augment: inactive; Insulin prom inh cell count: 208.5; HSV augment primary fold: 1.08

What do the screens show for `CCC1CCCCN1Cc1ccc(OC)c(C)c1C` (stereo not given)?
GALR2 ag: -1.5; PKD1 inh: 4.0; RGS16-Gao: 103.2; Insulin prom inh: -10.0; HSV augment: inactive; Insulin prom inh cell count: 79.1; HSV augment primary fold: 0.83

Results for CCCCc1ccc(NC(=O)COc2ccc(C(=O)Nc3ccccc3OCC)cc2)cc1 ?
GALR2 ag: -0.4; PKD1 inh: -1.1; RGS16-Gao: 96.4; Insulin prom inh: 7.7; HSV augment: inactive; Insulin prom inh cell count: 117.8; HSV augment primary fold: 0.92

What do the screens show for `Cc1ccccc1OC1C(=O)N(CC2CCCO2)C1c1ccc2c(c1)OCO2` (stereo not given)?
PKD1 inh: -0.8; RGS16-Gao: 98.5; HSV augment: inactive; HSV augment primary fold: 1.06

What do the screens show for `Oc1ccc(/C=C/c2nc(-c3ccccc3O)n(-c3ccccc3)n2)cc1`?
GALR2 ag: -2.0; PKD1 inh: -1.5; RGS16-Gao: 94.1; Insulin prom inh: 3.9; HSV augment: inactive; Insulin prom inh cell count: 105.1; HSV augment primary fold: 0.73

What do the screens show for `Cc1c(NC(=O)CSc2nc3ccc(Cl)cc3[nH]2)c(=O)n(-c2ccccc2)n1C`?
GALR2 ag: -5.0; PKD1 inh: -3.3; RGS16-Gao: 96.2; Insulin prom inh: 6.2; HSV augment: inactive; Insulin prom inh cell count: 84.9; HSV augment primary fold: 1.03

Results for COc1ccc(N(CC(O)CN2C(=O)NC(C)(C)C2=O)S(=O)(=O)c2ccccc2)cc1 (stereo not given) ?
GALR2 ag: -2.1; PKD1 inh: 5.2; RGS16-Gao: 97.7; Insulin prom inh: -9.9; HSV augment: inactive; Insulin prom inh cell count: 122.2; HSV augment primary fold: 1.01

What do the screens show for `Cc1ccc(NC(=O)N/C=C/c2ccccc2)cc1`?
GALR2 ag: -2.1; PKD1 inh: -9.9; RGS16-Gao: 103.0; Insulin prom inh: 17.2; HSV augment: inactive; Insulin prom inh cell count: 119.0; HSV augment primary fold: 1.11

What do the screens show for `Cc1ccc(C(=O)Oc2csc(=S)n2C(=O)c2ccc(C)cc2)cc1`?
GALR2 ag: -2.3; PKD1 inh: 0.5; RGS16-Gao: 85.2; Insulin prom inh: 64.3; HSV augment: inactive; Insulin prom inh cell count: 64.4; HSV augment primary fold: 0.65

Results for CCOC(=O)c1c(OCCO)nn(-c2ccc(Cl)cc2)c1N ?
PKD1 inh: -0.7; RGS16-Gao: 102.3; HSV augment: inactive; HSV augment primary fold: 0.94

How did CC(C)c1ccc(NC(=O)C(c2ccccc2)N2CCC3(CC2)OCCO3)cc1 (stereo not given) do in these assays?
GALR2 ag: -0.2; PKD1 inh: -8.1; RGS16-Gao: 105.0; Insulin prom inh: -2.6; HSV augment: inactive; Insulin prom inh cell count: 118.6; HSV augment primary fold: 1.14

How did COc1ccc(-c2nc3ccc([N+](=O)[O-])cc3o2)cc1 do in these assays?
GALR2 ag: -1.3; PKD1 inh: -3.8; RGS16-Gao: 115.8; Insulin prom inh: -6.7; HSV augment: inactive; Insulin prom inh cell count: 80.8; HSV augment primary fold: 0.99

Results for CCCC1Cc2c(sc3ncnc(N)c23)CO1 (stereo not given) ?
GALR2 ag: -0.6; PKD1 inh: -6.7; RGS16-Gao: 93.0; Insulin prom inh: -17.2; HSV augment: inactive; Insulin prom inh cell count: 89.4; HSV augment primary fold: 1.03

Results for COc1ccc(C(=O)NCCn2ccc3ccccc32)c(OC)c1 ?
GALR2 ag: 0.2; PKD1 inh: 2.5; RGS16-Gao: 102.2; Insulin prom inh: 2.6; HSV augment: inactive; Insulin prom inh cell count: 41.7; HSV augment primary fold: 1.58

Results for C=CCn1c(SCC(=O)Nc2cc(C)ccc2C)nnc1-c1cnccn1 ?
GALR2 ag: -1.4; PKD1 inh: -3.0; RGS16-Gao: 95.0; HSV augment: inactive; HSV augment primary fold: 0.95

What do the screens show for `Cc1nc(C)c(-c2csc(NCc3ccccc3)n2)s1`?
GALR2 ag: -2.6; PKD1 inh: -1.6; RGS16-Gao: 81.2; HSV augment: inactive; HSV augment primary fold: 1.09

What do the screens show for `COc1ccc(O)c(C=Nc2cc(C)on2)c1`?
GALR2 ag: -0.8; PKD1 inh: 41.2; RGS16-Gao: 100.2; HSV augment: inactive; HSV augment primary fold: 1.09

How did COc1ccc(C2C(C(=O)NCc3ccco3)CCC(=O)N2c2ccc(OC)cc2)cc1 (stereo not given) do in these assays?
GALR2 ag: -0.6; PKD1 inh: -4.1; RGS16-Gao: 99.2; Insulin prom inh: -29.4; HSV augment: inactive; Insulin prom inh cell count: 86.4; HSV augment primary fold: 0.95

What do the screens show for `CCn1c(-c2cc(-c3ccc(C)cc3)nc3ccccc23)n[nH]c1=S`?
PKD1 inh: 1.7; RGS16-Gao: 99.1; HSV augment: inactive; HSV augment primary fold: 0.87

How did COCCNCC(=O)Nc1nc(C)cs1 do in these assays?
PKD1 inh: 2.0; RGS16-Gao: 101.2; HSV augment: inactive; HSV augment primary fold: 1.08

What do the screens show for `CCOC(=O)c1ccc(NS(=O)(=O)c2cc(-c3nnnn3CC)ccc2OC)cc1`?
GALR2 ag: -2.2; PKD1 inh: -3.0; RGS16-Gao: 115.0; HSV augment: inactive; HSV augment primary fold: 0.85

Results for COc1cccc(/C=N/NC(=O)C(=O)NCc2ccco2)c1OC ?
GALR2 ag: -0.8; PKD1 inh: -8.5; RGS16-Gao: 99.6; Insulin prom inh: -33.3; HSV augment: inactive; Insulin prom inh cell count: 91.2; HSV augment primary fold: 0.79

What do the screens show for `CCOC(=O)C(Cc1c(F)cccc1Cl)c1ccnc2nc(N)nn12` (stereo not given)?
PKD1 inh: -6.6; RGS16-Gao: 97.1; HSV augment: inactive; HSV augment primary fold: 0.92

How did Cc1oc2ccc(OCc3ccc(F)cc3Cl)cc2c1C(=O)O do in these assays?
RGS16-Gao: 86.9; HSV augment: inactive; HSV augment primary fold: 0.88

How did CN1CCN(CCCCC(=O)c2ccccc2)CC1 do in these assays?
GALR2 ag: -2.5; PKD1 inh: 1.6; RGS16-Gao: 100.5; Insulin prom inh: -107.1; HSV augment: inactive; Insulin prom inh cell count: 100.0; HSV augment primary fold: 1.06

How did O=C(Nc1nnc(CCc2ccccc2)s1)c1ccco1 do in these assays?
GALR2 ag: -0.4; PKD1 inh: -4.4; RGS16-Gao: 97.6; Insulin prom inh: -60.0; HSV augment: inactive; Insulin prom inh cell count: 107.3; HSV augment primary fold: 0.95

Arranged by SMILES length (lowest first): part of the list above.
Results for COc1ccc(C(=O)NCCn2ccc3ccccc32)c(OC)c1 ?
GALR2 ag: 0.2; PKD1 inh: 2.5; RGS16-Gao: 102.2; Insulin prom inh: 2.6; HSV augment: inactive; Insulin prom inh cell count: 41.7; HSV augment primary fold: 1.58

What do the screens show for `CCOC(=O)C(Cc1c(F)cccc1Cl)c1ccnc2nc(N)nn12` (stereo not given)?
PKD1 inh: -6.6; RGS16-Gao: 97.1; HSV augment: inactive; HSV augment primary fold: 0.92

What do the screens show for `CCn1c(-c2cc(-c3ccc(C)cc3)nc3ccccc23)n[nH]c1=S`?
PKD1 inh: 1.7; RGS16-Gao: 99.1; HSV augment: inactive; HSV augment primary fold: 0.87

Fetched by structure from the list above (3):
How did CN1CCN(CCCCC(=O)c2ccccc2)CC1 do in these assays?
GALR2 ag: -2.5; PKD1 inh: 1.6; RGS16-Gao: 100.5; Insulin prom inh: -107.1; HSV augment: inactive; Insulin prom inh cell count: 100.0; HSV augment primary fold: 1.06

How did O=C(Nc1nnc(CCc2ccccc2)s1)c1ccco1 do in these assays?
GALR2 ag: -0.4; PKD1 inh: -4.4; RGS16-Gao: 97.6; Insulin prom inh: -60.0; HSV augment: inactive; Insulin prom inh cell count: 107.3; HSV augment primary fold: 0.95

How did COc1ccc(C2C(C(=O)NCc3ccco3)CCC(=O)N2c2ccc(OC)cc2)cc1 (stereo not given) do in these assays?
GALR2 ag: -0.6; PKD1 inh: -4.1; RGS16-Gao: 99.2; Insulin prom inh: -29.4; HSV augment: inactive; Insulin prom inh cell count: 86.4; HSV augment primary fold: 0.95

Screening results deposited in PubChem BioAssay by several laboratories.
